# Screens from PubChem.
# RGS16-Gao: modulators of RGS16 binding to Galphao, primary screen, biochemical, human proteins, multiplexed bead flow cytometry; 220,000 compounds, 0.38% hits; bead-based flow cytometry RGS16-Galphao binding, fluorescence; actives lie on both sides; Regulator of G-protein signaling 16 (Homo sapiens) + Guanine nucleotide-binding protein …; binding response (% of control), % at 10 µM; AID 1441, 2008;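 active = below 25% or above 175%, edge rows of some plates excepted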;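 note: Galphao activated by GDP with aluminum fluoride before binding; 100% = wells without compound and 0% = beads without RGS; some results beyond the cut were filed as inactive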
# Target sequence (O15492 whole entry, looked up): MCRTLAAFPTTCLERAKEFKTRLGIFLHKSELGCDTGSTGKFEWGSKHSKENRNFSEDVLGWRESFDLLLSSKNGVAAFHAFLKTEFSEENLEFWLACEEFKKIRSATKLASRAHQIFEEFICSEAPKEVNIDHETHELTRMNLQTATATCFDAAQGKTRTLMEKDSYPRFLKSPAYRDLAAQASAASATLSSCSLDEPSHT
# Target sequence (P09471 whole entry, looked up): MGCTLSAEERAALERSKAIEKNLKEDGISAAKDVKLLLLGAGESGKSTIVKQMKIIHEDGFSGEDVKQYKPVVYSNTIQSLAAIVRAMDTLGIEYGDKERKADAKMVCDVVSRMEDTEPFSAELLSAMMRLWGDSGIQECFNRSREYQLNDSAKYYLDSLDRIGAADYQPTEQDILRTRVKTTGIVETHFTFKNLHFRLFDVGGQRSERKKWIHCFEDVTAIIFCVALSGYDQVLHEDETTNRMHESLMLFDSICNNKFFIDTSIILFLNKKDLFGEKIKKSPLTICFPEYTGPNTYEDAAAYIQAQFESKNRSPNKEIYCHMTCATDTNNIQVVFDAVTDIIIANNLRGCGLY
# INS promoter inh: inhibitors of insulin promoter-driven GFP, primary screen, imaging, TRM-6 cells (human fetal islet line), eGFP reporter, cell count; reporter expression induced with tamoxifen; inhibition, % at 2 µM; 130,000 compounds, 0.9% hits; AID 1273, 2008;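 active = inhibition above the mean plus 3 SD, with well images judged a real hit on visual review, cut at about 60% in these data, passing the limit was not always enough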
# PKD1 kinase inh: inhibitors of human PKD1 kinase, biochemical, fluorescence polarization. PKD1 kinase fluorescence polarization assay. 200,000 compounds, 0.056% hits. inhibition, %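 (about 10 µM by stock and volumes)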. AID 797, 2007. Serine/threonine-protein kinase D1 (Homo sapiens), Q15139;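 active = inhibition of 50% or more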;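 note: controls were vehicle for no effect and a reference inhibitor for full effect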
# GALR2 ag: GALR2 receptor agonists, primary screen, cell-based | Galanin receptor type 2 (Homo sapiens), O43603 | GALR2-expressing cells, agonist activation read-out | activation, %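 (tested at 5 µM)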 | 140,000 compounds, 0.48% hits | AID 803, 2007;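 active = above mean plus 3 SD of all compounds, about 5% in these data, not always enough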;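 note: 0% = vehicle buffer wells and 100% = reference agonist at full effect; tested in CHO reporter cells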
# Target sequence (O43603 whole entry, looked up): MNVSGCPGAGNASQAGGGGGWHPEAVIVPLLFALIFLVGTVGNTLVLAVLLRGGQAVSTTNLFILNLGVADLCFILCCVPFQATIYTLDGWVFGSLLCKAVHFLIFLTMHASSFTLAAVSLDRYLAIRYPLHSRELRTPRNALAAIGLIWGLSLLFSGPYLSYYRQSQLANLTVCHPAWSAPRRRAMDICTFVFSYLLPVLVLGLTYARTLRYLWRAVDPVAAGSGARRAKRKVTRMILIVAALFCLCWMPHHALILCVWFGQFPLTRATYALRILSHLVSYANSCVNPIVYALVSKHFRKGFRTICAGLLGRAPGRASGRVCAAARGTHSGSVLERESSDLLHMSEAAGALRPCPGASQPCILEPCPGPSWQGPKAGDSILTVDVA
# HSV replic up: enhancers of HSV replication in host cells, fold increase, host cell viability; HSV replication augmentation in cells; maximum fold increase; 220,000 compounds, 0.005% hits;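 active = peak rise of 1.5-fold or more in the series; tested in PC3 cells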;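 note: first round at 10 µM; read as green reporter fluorescence; hits show the peak of a series up to 25 µM; 1 = signal of infected wells without compound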
# INS promoter inh cell count: second read-out of INS promoter inh, no call of its own (marks repeat the call); normalized cell count, %; measured here: cell count, toxicity; reference of the scale not given here;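 cells exposed to compound for 48 h; stained nuclei by imaging scaled within each plate; lower means fewer cells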
# HSV replic up primary fold: further read-out of HSV replic up, marked with its call; fold increase; compound at 10 µM; measured here: primary screen fold increase 10 uM; tested in PC3 cells;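 GFP signal in the first replicate; 1 = infected wells without compound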
# * = called active by the depositor; i = inactive; x = not tested or not shown.
no.	mol	RGS16-Gao	INS promoter inh	INS promoter inh cell count	PKD1 kinase inh
1	COc1ccc(Cn2c(O)c(C=Nc3ccccc3C(=O)O)c3ccccc3c2=O)cc1	107	x	x	x
2	CC1(C)CC2CC(C)(CN2C(=O)c2cccs2)C1 (centres undefined)	105	-100	96	4
3	CCOC(=O)Cc1csc(NC(=O)Nc2ccc(F)cc2)n1	103	x	x	x
4	CCN(CC)c1ccc(-c2nn3c(-c4ccccc4OC)nnc3s2)cc1	102	x	x	2
5	CN1CCN(c2nc3ccccc3nc2C(C#N)S(=O)(=O)c2ccccc2)CC1 (centres undefined)	102	x	x	x
6	CCNC(=S)NNC(=O)C(c1ccccc1)c1ccccc1	106	10	87	10
7	O=C(Cn1ccc([N+](=O)[O-])n1)NCc1cccs1	100	x	x	1
8	O=C(CN1C(=O)c2ccccc2S1(=O)=O)NCCSCc1ccco1	105	x	x	2
9	COc1ccc(NS(=O)(=O)c2cc(NC(=O)[C@@H](NC(=O)c3ccccc3)C(C)C)ccc2C)cc1	100	10	101	-1
10	Cc1ccc(NC(=O)Cc2cn3ccsc3n2)nc1	98	x	x	3
11	Cc1cc(C)nc(/N=C(\N)Nc2ccc(S(=O)(=O)Nc3nccc(C)n3)cc2)n1	110	x	x	-5
12	NNc1ncnc2sc3c(c12)CCC3	116	27	82	0
13	CCOC(=O)N1CCN(C(=O)c2ccc3nc4cc(Cl)ccc4c(=O)n3c2)CC1	x	24	115	4
14	Cc1ccc(C(=O)C(C(=O)/C=C/c2ccccc2)=C2SCCCS2)cc1	97	-378	40	-13
15	Cc1ccc2c(c1)N(CC(=O)NCCc1c[nH]c3ccccc13)C(=O)CO2	101	x	x	-3

no.	GALR2 ag	HSV replic up	HSV replic up primary fold
1	x	i	0.96
2	-2.4	i	0.77
3	x	i	1.1
4	6.8*	i	0.57
5	x	i	0.82
6	-0.7	i	0.91
7	-3.7	x	x
8	-1.4	i	1
9	-0.7	i	0.61
10	0.1	i	1
11	x	i	0.98
12	x	i	0.98
13	-2.1	i	0.93
14	-1.3	i	0.49
15	-0.1	i	0.85

# Ordered by value in GALR2 ag (ascending): four of the compounds above
entry	SMILES	RGS16-Gao	PKD1 kinase inh	GALR2 ag	HSV replic up primary fold
2	CC1(C)CC2CC(C)(CN2C(=O)c2cccs2)C1 (centres undefined)	105	4	-2.4	0.77
8	O=C(CN1C(=O)c2ccccc2S1(=O)=O)NCCSCc1ccco1	105	2	-1.4	1
15	Cc1ccc2c(c1)N(CC(=O)NCCc1c[nH]c3ccccc13)C(=O)CO2	101	-3	-0.1	0.85
10	Cc1ccc(NC(=O)Cc2cn3ccsc3n2)nc1	98	3	0.1	1

# Next section.
no.	mol	RGS16-Gao	INS promoter inh	INS promoter inh cell count	PKD1 kinase inh
16	CC1CC(C)CN(C(=O)COc2ccc([N+](=O)[O-])cc2Cl)C1 (centres undefined)	103	x	x	-1
17	O=C(NC(=S)NCC1CCCO1)c1ccccc1F (centres undefined)	99	x	x	-6
18	CC(NC(=O)c1ccccc1)C(=O)N/N=C/c1cccc([N+](=O)[O-])c1 (centres undefined)	105	-25	135	-6
19	Cc1ccc(N2C(=O)CC(N3CCN/C3=C3\CC/C(=C\c4ccccc4)C3=O)C2=O)cc1 (centres undefined)	108	-6	99	2
20	CCOC(=O)C(CC)(CCC(=O)OC)c1csc(Nc2ccccc2O)n1 (centres undefined)	105	x	x	x
21	COc1ccccc1N1CCN(C(=O)c2cc3cc(Br)ccc3oc2=O)CC1	79	x	x	-6
22	COc1cccc(CC(NC(C)=O)C(=O)NC2CCN(c3nc(C)cc(C)c3C#N)CC2)c1OC (centres undefined)	77	16	157	3
23	Cc1cc(Cl)ccc1NC(=O)CCCN1C(=O)CCC1=O	61	50	74	2
24	CCC1=C2CC[C@H]3C(=O)N(CC)C(=O)[C@H]3[C@H]2[C@@]2(Cc3ccccc3)C(=NCc3ccccc3)OC(=O)N2C1=O	102	x	x	x
25	N#C/C(=C\c1cccs1)C(=O)NCc1cccnc1	105	-36	83	-6
26	CN1CCN(Cn2cc(/C=C/C(=O)c3ccccc3)c3ccccc32)CC1	119	-18	152	8
27	COc1ccc(Cl)cc1NC(=O)COC(=O)CCNC(C)=O	75	x	x	0
28	CCN1CCN(CC(=O)N2N=C(c3cccs3)CC2c2ccc(OC)cc2)C(=O)C1=O (centres undefined)	99	50	86	-6
29	Cc1ccc(S(=O)(=O)NC(C(=O)Oc2ccc3ccc(=O)oc3c2)c2ccccc2)cc1 (centres undefined)	83	17	76	2
30	Cc1cc(Cl)c(S(=O)(=O)NCC2CCCO2)cc1OCC(=O)NC1CCCCC1 (centres undefined)	111	-69	143	3

no.	GALR2 ag	HSV replic up	HSV replic up primary fold
16	x	i	1
17	x	i	1
18	x	i	0.96
19	x	i	0.88
20	x	i	1.2
21	-2.8	i	0.95
22	-0.6	i	1.1
23	-2.3	i	0.9
24	x	i	0.94
25	-0.5	i	0.94
26	2.8	i	0.69
27	-1.3	i	1
28	x	i	0.89
29	1.3	i	1
30	-1.9	i	0.81

# Later entries.
no.	mol	RGS16-Gao	INS promoter inh	INS promoter inh cell count	PKD1 kinase inh
31	Cc1nc(-c2ccccc2)sc1C(=O)O	101	x	x	4
32	NC(=O)C1CCN(c2c([N+](=O)[O-])cc(C(F)(F)F)cc2[N+](=O)[O-])CC1	99	x	x	x
33	COc1ccc(N2C(=O)CC(N3CCN(S(=O)(=O)c4ccc(Cl)cc4)CC3)C2=O)cc1 (centres undefined)	102	27	197	-4
34	Cc1onc(C(=O)Nc2c(C)n(C)n(-c3ccccc3)c2=O)c1[N+](=O)[O-]	98	x	x	x
35	CC1CN(S(=O)(=O)c2ccc(C(=O)Nc3nnc(-c4ccco4)o3)cc2)CC(C)O1 (centres undefined)	113	57	132	8
36	COC(=O)c1c(-c2cccs2)csc1NC(=O)c1cccnc1	103	x	x	6
37	COc1ccc(OC)c(S(=O)(=O)N2CCC(C(=O)NCCc3ccccc3)CC2)c1	106	-9	69	-2
38	COc1cccc(/C=c2\s/c(=C/C(=O)c3ccc(C)cc3)[nH]c2=O)c1OC	55	3	100	-11
39	c1ccc2sc(NC3=NCN(C4CCCCCC4)CN3)nc2c1	98	14	86	-2
40	COc1ccc(C(=O)Oc2ccc(C(C)=O)cc2)c(OC)c1	94	14	118	-5
41	O=C(CCc1ccccc1)N1CCCN(C(=O)CCc2ccccc2)CC1	104	-29	131	-13
42	O=C1NCCN(Cc2ccc(Cl)c(F)c2)C1CC(=O)N1CCc2ccccc2C1 (centres undefined)	104	x	x	2
43	CC1=NN(c2cccc(Cl)c2)C(=O)C12CC(C)=C(C)CS2 (centres undefined)	92	23	136	-7
44	CCOC(=O)N1CCC(NC(=O)CCC(=O)N2CCOc3ccc(Cl)cc32)CC1	102	12	84	-6
45	CCOC(=O)N(NC(=O)C(O)(CC(C)C)CC(C)C)c1ccccc1	80	-64	69	0

no.	GALR2 ag	HSV replic up	HSV replic up primary fold
31	x	i	0.92
32	x	i	1.3
33	x	i	1.1
34	x	i	1.1
35	x	i	0.88
36	0.9	i	0.81
37	-1.3	i	0.81
38	-0.9	i	1
39	-1.7	i	0.95
40	-2.8	i	0.98
41	0.6	i	1
42	x	i	1.1
43	-2.2	x	x
44	x	i	0.95
45	-0.7	i	0.98

# (continued)
no.	mol	RGS16-Gao	INS promoter inh	INS promoter inh cell count	PKD1 kinase inh
46	O=C(Oc1cc2oc(=O)c3c(c2cc1Cl)CCCC3)c1cccs1	104	-264	98	-1
47	Oc1ccc(N2CCN(c3nc(-c4cccs4)nc4ccccc34)CC2)cc1	101	x	x	x
48	COc1cccc(CNC(=O)CCC2CCCN(C/C=C/c3ccccc3OC)C2)c1 (centres undefined)	109	x	x	0
49	CCCCN1C(=O)Nc2ccccc2S1=O (centres undefined)	86	-92	23	-8
50	Cc1ccccc1NC(=O)NNC(=O)OC(C)(C)C	96	x	x	-1
51	CCN(c1ccc(NC(=O)COC(=O)CCC(=O)c2ccc(F)cc2)cc1)C(C)C	75	-20	87	-4
52	CC(C)CCNc1c(-c2cccs2)nc2ccccn12	93	8	150	-3
53	COC(=O)c1ccc(OS(=O)(=O)c2ccc(NC(C)=O)cc2)cc1	69	21	121	-6
54	Cc1cc(Cl)c(S(=O)(=O)Nc2ccccn2)cc1OCC(N)=O	100	25	138	-2
55	CN(CC(O)COCc1ccc2c(c1)OCO2)C1CCCCC1 (centres undefined)	99	-31	78	-12
56	CCOC(=O)C1=C(C)NC(=O)C1CC(=O)O (centres undefined)	114	-24	123	12
57	COc1cc2c(cc1OC)CC1(CCCCC1)N=C2	101	-29	128	-3
58	CC(c1ccccn1)N(CCN(C)C)C(=S)Nc1cccc(F)c1 (centres undefined)	97	-10	130	4
59	Cc1noc(C)c1S(=O)(=O)N1CCC(C(=O)NC2CCN(Cc3ccccc3)CC2)CC1	153	-15	85	0
60	O=C(NCCCN1CCN(c2ccccc2F)CC1)C1CCC(=O)N1C1CCCC1 (centres undefined)	106	-45	98	-5

no.	GALR2 ag	HSV replic up	HSV replic up primary fold
46	0.2	i	1.1
47	x	i	0.84
48	x	i	0.95
49	-2.3	i	0.97
50	x	i	1
51	-1.1	i	0.97
52	x	i	1
53	-0.8	i	0.99
54	-2.4	i	0.85
55	-0.8	i	0.87
56	-0.2	i	1
57	x	i	1.1
58	-0.7	i	1
59	-1.8	i	1.1
60	0.2	i	1.1

# Nothing new here: an excerpt of the list.
no.	mol	RGS16-Gao	INS promoter inh	INS promoter inh cell count	PKD1 kinase inh
58	CC(c1ccccn1)N(CCN(C)C)C(=S)Nc1cccc(F)c1 (centres undefined)	97	-10	130	4
59	Cc1noc(C)c1S(=O)(=O)N1CCC(C(=O)NC2CCN(Cc3ccccc3)CC2)CC1	153	-15	85	0
60	O=C(NCCCN1CCN(c2ccccc2F)CC1)C1CCC(=O)N1C1CCCC1 (centres undefined)	106	-45	98	-5

no.	GALR2 ag	HSV replic up	HSV replic up primary fold
58	-0.7	i	1
59	-1.8	i	1.1
60	0.2	i	1.1

# By substructure: those above with a cyano group.
no.	mol	RGS16-Gao	INS promoter inh	INS promoter inh cell count	PKD1 kinase inh
5	CN1CCN(c2nc3ccccc3nc2C(C#N)S(=O)(=O)c2ccccc2)CC1 (centres undefined)	102	x	x	x
22	COc1cccc(CC(NC(C)=O)C(=O)NC2CCN(c3nc(C)cc(C)c3C#N)CC2)c1OC (centres undefined)	77	16	157	3
25	N#C/C(=C\c1cccs1)C(=O)NCc1cccnc1	105	-36	83	-6

no.	GALR2 ag	HSV replic up	HSV replic up primary fold
5	x	i	0.82
22	-0.6	i	1.1
25	-0.5	i	0.94

# More results:
no.	mol	RGS16-Gao	INS promoter inh	INS promoter inh cell count	PKD1 kinase inh
61	COc1ccc(NC(=O)CCCn2cc([N+](=O)[O-])cn2)cc1	102	0	82	-8
62	O=c1[nH]ncc(N2CCCC2)c1Cl	100	18	63	-10
63	Cc1ccc(CN2CCN(Cc3c[nH]c4ccccc34)CC2CCO)o1 (centres undefined)	101	x	x	-4
64	N#CCCCSc1nnnn1-c1cccc(Cl)c1	108	-124	46	-11
65	CCNC(=O)c1sc(=S)n(CC)c1N	110	x	x	3
66	Cc1ccc(NC(=O)Cn2c(O)c(N=NS(=O)(=O)c3ccc(C)cc3)c3ccccc32)cc1	102	18	157	2
67	CCCc1cc(C(=O)Nc2nnc(C)s2)cs1	101	8	144	5
68	CCC1C(=O)N=C(SCC(=O)Nc2nc3ccccc3s2)NC1=O (centres undefined)	111	43	111	-7
69	CCOC(=O)C1CCN(S(=O)(=O)Cc2ccc(Cl)cc2)CC1	x	3	162	0
70	O=C(C1CC1)N1CCc2sccc2C1c1ccc(Cl)cc1 (centres undefined)	99	x	x	x
71	O=C(CN1CCCc2ccccc21)N/N=C/c1ccc(F)cc1F	105	x	x	x
72	COc1cccc(OCc2nnc(SC)n2C)c1	100	x	x	-1
73	CC1CN(C(=O)c2cccc(S(=O)(=O)N3CCOCC3)c2)CC(C)O1 (centres undefined)	96	33	135	5
74	O=C(O)Cc1csc(Nc2cccc(Cl)c2)n1	107	62	147	-9
75	CC(C)N(Cc1nccn1C)C(=O)CCc1nnc(CCCc2ccccc2)o1	109	-62	67	-11

no.	GALR2 ag	HSV replic up	HSV replic up primary fold
61	x	i	0.99
62	x	i	0.88
63	x	i	0.93
64	-4.5	x	x
65	-1.7	i	0.89
66	0.0	i	1
67	-1.4	i	0.6
68	x	i	0.92
69	-2.7	i	1
70	x	i	0.93
71	x	i	0.94
72	-0.3	i	0.93
73	0.6	i	0.85
74	1.3	i	0.88
75	x	i	1.1
